Compound activity deposited in PubChem BioAssay by several laboratories.
HSV augment: increases HSV replication in cells | maximum fold increase | actives 0.005% (n = 220,000) | HSV replication augmentation in cells, fold increase | AID 1956;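 active means peak rise of 1.5-fold or more in the series; inconclusive means self-fluorescent or not available for retest; tested in PC3 cells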;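 further: first round at 10 µM; read as green reporter fluorescence; hits show the peak of a series up to 25 µM; 1 = signal of infected wells without compound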
GALR2 ag: activates the human galanin receptor 2 | activation, %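 (tested at 5 µM)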 | actives 0.48% (n = 140,000) | GALR2-expressing cells, agonist activation read-out | O43603;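 active means above mean plus 3 SD of all compounds, about 5% in these data, not always enough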;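 further: 0% = vehicle buffer wells and 100% = reference agonist at full effect; tested in CHO reporter cells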
Target sequence (O43603 whole entry, looked up): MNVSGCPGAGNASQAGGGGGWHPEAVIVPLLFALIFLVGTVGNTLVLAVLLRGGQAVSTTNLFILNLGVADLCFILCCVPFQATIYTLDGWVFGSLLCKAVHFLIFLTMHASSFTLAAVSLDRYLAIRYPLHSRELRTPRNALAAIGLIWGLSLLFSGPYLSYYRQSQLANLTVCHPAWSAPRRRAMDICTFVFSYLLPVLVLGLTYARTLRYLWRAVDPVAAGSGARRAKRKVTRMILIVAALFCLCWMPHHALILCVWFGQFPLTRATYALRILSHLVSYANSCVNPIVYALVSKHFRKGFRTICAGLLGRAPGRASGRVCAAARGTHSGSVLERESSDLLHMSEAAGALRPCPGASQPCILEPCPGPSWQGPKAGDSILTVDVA
PKD1 kinase inh: PKD1 (human) kinase inhibition; inhibition, %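 (about 10 µM by stock and volumes)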; Q15139; AID 797; PKD1 kinase fluorescence polarization assay; actives 0.056% (n = 200,000);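 active means inhibition of 50% or more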;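 further: controls were vehicle for no effect and a reference inhibitor for full effect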
RGS16-Gao: modulates binding between human RGS16 and Galphao; AID 1441; binding response (% of control), % at 10 µM; bead-based flow cytometry RGS16-Galphao binding, fluorescence; actives lie on both sides; actives 0.38% (n = 220,000); O15492+P09471;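 active means below 25% or above 175%, edge rows of some plates excepted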;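 further: Galphao activated by GDP with aluminum fluoride before binding; 100% = wells without compound and 0% = beads without RGS; some results beyond the cut were filed as inactive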
Target sequence (O15492 whole entry, looked up): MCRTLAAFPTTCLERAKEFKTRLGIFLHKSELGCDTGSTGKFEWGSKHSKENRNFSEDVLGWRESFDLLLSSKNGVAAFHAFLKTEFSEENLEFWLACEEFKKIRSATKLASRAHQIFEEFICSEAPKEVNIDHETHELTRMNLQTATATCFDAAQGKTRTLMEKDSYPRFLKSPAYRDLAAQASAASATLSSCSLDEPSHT
Target sequence (P09471 whole entry, looked up): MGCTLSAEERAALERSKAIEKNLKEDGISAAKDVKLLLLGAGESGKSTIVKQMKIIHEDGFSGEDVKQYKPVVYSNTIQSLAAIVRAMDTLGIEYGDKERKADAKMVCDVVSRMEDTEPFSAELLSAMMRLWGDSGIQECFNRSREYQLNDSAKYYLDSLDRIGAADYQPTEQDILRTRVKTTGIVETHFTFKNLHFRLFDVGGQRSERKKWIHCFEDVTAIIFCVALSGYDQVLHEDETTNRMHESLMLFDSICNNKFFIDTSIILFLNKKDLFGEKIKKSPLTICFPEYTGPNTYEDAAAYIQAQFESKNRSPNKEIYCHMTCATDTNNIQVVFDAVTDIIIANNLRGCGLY
INS promoter inh: TRM-6 insulin promoter activity inhibition; inhibition, % at 2 µM; TRM-6 cells (human fetal islet line), insulin promoter-eGFP reporter, imaging; reporter expression induced with tamoxifen; actives 0.9% (n = 130,000);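 active means inhibition above the mean plus 3 SD, with well images judged a real hit on visual review, cut at about 60% in these data, passing the limit was not always enough; inconclusive means inhibition over the cutoff but images rejected on review; inactive means inhibition not above the cutoff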
INS promoter inh cell count: also measured in INS promoter inh; calls as there; normalized cell count, %; measured here: cell count, toxicity; reference of the scale not given here;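 cells exposed to compound for 48 h; stained nuclei by imaging scaled within each plate; lower means fewer cells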
HSV augment primary fold: second read-out of HSV augment, no call of its own (marks repeat the call); fold increase; compound at 10 µM; measured here: primary screen fold increase 10 uM; tested in PC3 cells;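 GFP signal in the first replicate; 1 = infected wells without compound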
* marks the source's active call; other numbers are inactive results; i = inactive; u = inconclusive; x = not tested or not shown. Not a hit list, and some 1.1% of all compounds hit somewhere here.

SMILES | HSV augment | HSV augment primary fold | GALR2 ag | PKD1 kinase inh | RGS16-Gao | INS promoter inh | INS promoter inh cell count
O=C(CSc1nnnn1-c1ccccc1)NC(=O)Nc1ccc2c(c1)OCCO2 | i | 1.1 | -0.2 | 3 | 101 | -15 | 79
Cc1ccc(Oc2ccccc2/C=C2\SC(=O)N(C)C2=O)cc1 | i | 0.83 | -1.7 | -6 | 104 | 48 | 120
c1ccc(C2[C@H]3CN(Cc4cccnc4)[C@H](c4ccccc4)C34CC2(c2ccccc2)C4)cc1 (stereo partly specified) | i | 0.96 | x | x | 107 | x | x
CC(=O)NN1C(=O)/C(=C\c2ccc(C)cc2)SC1=S | i | 1 | -1.5 | 7 | 99 | x | x
CCOC(=O)/C(C#N)=C1/SC(CCO)C(=O)N1c1ccccc1 (stereo unspecified) | i | 1 | -0.5 | 0 | 112 | x | x
COc1cc(NC(=O)C2CCCCN2)ccc1OCC(C)C (stereo unspecified) | i | 0.8 | -1.9 | -8 | 102 | 19 | 132
CCOC(=O)N1CCN(C(=O)Cn2c(=O)sc3ccccc32)CC1 | i | 0.98 | -0.9 | -2 | 107 | x | x
COCCOC(=O)c1c(C)oc2ccc(NS(=O)(=O)c3ccc(C(=O)O)cc3)cc12 | i | 0.93 | x | x | 108 | x | x
CCC1(CC)C(=O)NC(=O)NC1=NCCc1ccc(O)cc1 | i | 0.96 | -1.5 | 0 | 99 | -23 | 80
COc1ccc(NC(=O)CSc2cccc3cccnc23)c(OC)c1 | i | 0.96 | -0.8 | 0 | 85 | 18 | 67
CCn1cc(Br)c(C(=O)Nc2cccc(Cl)c2)n1 | i | 0.95 | -2.2 | -13 | 102 | 24 | 168
CCOc1ccc(NC(=O)CC2C(=O)N(c3cccc(OC)c3)C(=O)N2C(C)C)cc1 (stereo unspecified) | i | 0.69 | x | 0 | 103 | x | x
CCc1nn2c(=O)cc(COc3ccc(/C=C4\C(=N)N5N=C(C)SC5=NC4=O)cc3)nc2s1 | i | 0.87 | x | -2 | 94 | 29 | 136
COc1ccc2[nH]c(O)c(NC(C)=O)c2c1 | i | 1.1 | 1.1 | -8 | 104 | 24 | 110
CCC(CO)NC(=O)c1ccccc1C(F)(F)F (stereo unspecified) | i | 1.1 | x | x | 105 | x | x
O=C(Nc1nc2c(s1)C(=O)CCC2)c1ccccc1 | i | 1.1 | -0.3 | -7 | 104 | x | x
CCN1CCN(CCCNC(=O)Cn2cc3c(n2)CCCC3)CC1 | i | 0.97 | -2.2 | -10 | 103 | x | x
COc1ccc(C=O)cc1OC(=O)C1(C)Cc2ccccc2C(=O)O1 (stereo unspecified) | i | 0.97 | x | -1 | 104 | x | x
O=C(c1ccco1)N1CCN(C(=O)c2oc(=O)c3ccccc3c2-c2ccccc2)CC1 | i | 1 | -0.6 | -9 | 102 | x | x
CCCC1=C(C(=O)OCC)C(c2cc(Cl)cc(OC)c2OCc2ccccc2)NC(=O)N1 (stereo unspecified) | i | 0.95 | -1.6 | -9 | 104 | -51 | 232
Cc1ccc(NC(=O)C2CC(=O)n3ncnc3N2)cc1C (stereo unspecified) | i | 0.97 | x | -1 | 86 | 55 | 85
O=C1C2C3C=CC(C4CC34)C2C(=O)N1/N=C/c1ccc(-c2cccc([N+](=O)[O-])c2)o1 (stereo unspecified) | i | 1.1 | -0.1 | -8 | 108 | 6 | 83
COc1ccc(/C=N/n2cnnc2SCc2ccc(OC)cc2)cc1 | i | 0.98 | -0.6 | -14 | 68 | 24 | 110
CCOc1cccc(C(=O)Nc2cccnc2)c1 | i | 1 | -2.0 | -7 | 109 | 57 | 86
COCCOC(=O)C1=C(C)NC2=C(C(=O)CCC2)C1c1ccc2c(c1)OCO2 (stereo unspecified) | x | x | -0.2 | 6 | 107 | x | x
CCN1CCN(C(c2cccs2)C(C)NS(=O)(=O)c2ccc(Br)cc2)CC1 (stereo unspecified) | x | x | -3.2 | 2 | 97 | x | x
Cc1ccccc1CS(=O)(=O)c1ccc(C(=O)N2CCC(C)CC2)cc1[N+](=O)[O-] | i | 0.79 | x | -6 | 108 | 50 | 149
O=CNC1CCCc2c1[nH]c1ccc(Cl)cc21 (stereo unspecified) | i | 0.77 | -1.5 | 9 | 98 | 12 | 100
O=C(CC1C(=O)NCCN1Cc1cccc(Oc2ccccc2)c1)NCCc1ccncc1 (stereo unspecified) | i | 1.1 | x | -1 | 100 | x | x
O=C(c1ccco1)N1CCCN(Cc2nc(-c3cccs3)no2)CC1 | i | 0.94 | x | -3 | 97 | x | x
CC(=C/c1ccc(C(C)C)cc1)/C=N/NC(=O)c1ccncc1 | i | 0.9 | 0.2 | 4 | 114 | -26 | 108
CCCCn1c(CN2CCN(C(=O)OCC)CC2)nc2c1c(=O)n(C)c(=O)n2C | i | 0.91 | -0.3 | 3 | 102 | x | x
Cc1ccc(S(=O)(=O)N2CCC(=O)N(C(COCc3ccc(Cl)cc3)Cc3ccccc3)CC2)cc1 (stereo unspecified) | i | 0.66 | -1.7 | 7 | 98 | -95 | 100
Cc1cnc(C(=O)OCC(=O)NC(=O)NC(C)C)cn1 | i | 0.97 | -1.5 | -10 | 101 | x | x
S=c1[nH]nc(-c2ccc3ccccc3n2)n1Cc1ccccc1 | i | 0.87 | -0.2 | 1 | 104 | 7 | 134
CCOc1ccc(Br)cc1/C=N/O | i | 0.76 | -2.3 | 4 | 94 | -4 | 68
COc1ccccc1OC(C)C(=O)Nc1nc(-c2ccc(S(=O)(=O)N3CCOCC3)cc2)cs1 (stereo unspecified) | i | 0.92 | -3.4 | 2 | 102 | 14 | 79
CCOC(=O)c1ccc(CNC(=O)Cn2nnc(-c3cccc(C)c3)n2)o1 | i | 0.6 | x | -4 | 112 | -27 | 118
Cc1cc(CCN2CCC(=O)NC2=S)ccc1OC(C)C | i | 0.91 | -3.1 | -13 | 92 | 7 | 83
COc1cccc(C2NC(CCSC)(C(=O)O)C3C(=O)N(C(C)C)C(=O)C23)c1O (stereo unspecified) | i | 0.82 | -0.4 | -8 | 94 | x | x
O=c1c2c(-c3ccccc3)csc2nc2n1CCC2 | i | 0.93 | 2.2 | 0 | 91 | 16 | 64
O=c1[nH]nc(-c2ccc(F)cc2)cc1Cc1ccccc1 | i | 1 | x | x | 101 | x | x
COc1ccccc1C(=O)Nc1cc2cc(Br)ccc2oc1=O | x | x | -3.7 | 1 | 111 | 73 | 111
O=C(c1cccc(F)c1)N1CCN(C(=O)C2CC2)CC1 | i | 1.1 | -2.6 | -21 | 101 | -3 | 99
COc1ccc(Cl)cc1-c1nc(-c2ccc(Br)o2)no1 | x | x | -2.5 | 10 | 100 | x | x
CC(C)(C#N)c1cc(Cn2cncn2)cc(C(C)(C)C#N)c1 | i | 0.98 | x | x | 100 | x | x
CC(NC(=O)C1CCC(C(C)(C)C)CC1)C(c1ccccc1)N1CCOCC1 (stereo unspecified) | i | 0.93 | x | 7 | 104 | x | x
C=CCn1c(SCC(=O)Nc2sccc2C(N)=O)nc2sc(C)c(C)c2c1=O | i | 0.77 | 1.9 | -2 | 99 | x | x
COc1ccc(OCc2n[nH]c(=S)n2-c2ccc(C)cc2)cc1 | i | 1 | x | -1 | 102 | x | x
CCOC(=O)c1c(-c2ccccc2)cn2c(C)cc(C)nc12 | i | 0.97 | x | -6 | 100 | x | x
(further entries)
SMILES | HSV augment | HSV augment primary fold | GALR2 ag | PKD1 kinase inh | RGS16-Gao | INS promoter inh | INS promoter inh cell count
CCOc1nc(SCCOc2ccc(Cl)cc2Cl)nc(N(C)C)n1 | i | 1 | -0.4 | -12 | 99 | 17 | 139
O=C1C2C(c3cccc(/C=C/c4ccccc4)c3)CC=CC2C(c2ccc(C(F)(F)F)cc2)N1Cc1ccccc1 (stereo unspecified) | i | 0.8 | x | x | 101 | x | x
Cc1nc2ccc(NC(=O)c3ccc([N+](=O)[O-])cc3)cc2s1 | i | 0.76 | -0.8 | 7 | 109 | -38 | 121
CN1CCS/C1=C/C=C1\SC(=S)N(CC(=O)O)C1=O | u | x | x | -7 | 133 | x | x
CCOc1cc(C(=O)N/N=C(\C)Cc2ccc(OC)cc2)cc(OCC)c1OCC | i | 0.8 | -0.1 | -8 | 101 | x | x
Cc1c(NC(=O)COC(=O)C(c2ccc(Cl)cc2)C(C)C)c(=O)n(-c2ccccc2)n1C (stereo unspecified) | i | 0.91 | -1.5 | 0 | 69 | x | x
CC(=O)c1c(C)[nH]c(C(=O)OCC(=O)NCCc2ccc(Cl)cc2)c1C | i | 0.88 | -2.0 | -15 | 93 | 13 | 66
COc1cc(/C=C2\SC(=S)N(CC(=O)Nc3cccnc3)C2=O)cc(OC)c1OC | i | 1.1 | -0.8 | -2 | 107 | -37 | 132
Nc1ccc(S(=O)(=O)NNC(=O)C(=O)NNc2ccccn2)cc1 | x | x | -4.1 | 4 | 92 | -7 | 113
C/C(=N/NC(=O)c1ccc2c(c1)OCCO2)c1ccc([N+](=O)[O-])cc1 | i | 1.2 | x | x | 110 | x | x
Cc1cccc(NC(=O)c2sc3nc(-c4ccccc4)cn3c2C)n1 | i | 0.98 | -1.1 | 2 | 92 | 67 | 127
COc1cccc(CNc2nc(-c3cccnc3)nc3ccccc23)c1 | i | 0.87 | x | 1 | 99 | x | x
Cn1nc(-c2ccc(N3CCOCC3)c(NC(=O)COc3ccccc3)c2)c2ccccc2c1=O | x | x | -3.8 | -5 | x | 30 | 55
O=C(COC(=O)c1cc(C(F)(F)F)cc(C(F)(F)F)c1)NCc1ccc(Cl)cc1 | i | 0.9 | 0.4 | -2 | 114 | -9 | 116
CCCCNC(=S)NCc1ccc2[nH]c3c(c2c1)CCCC3 | i | 1 | x | 3 | 111 | 0 | 229
O=C(Nc1cccc(-c2nc3ncccc3o2)c1)c1ccccc1 | i | 1 | x | 2 | 99 | -40 | 112
CCOc1ccc2[nH]c3c(N4CCN(C(=O)c5ccco5)CC4)ncnc3c2c1 | i | 0.76 | x | x | 106 | x | x
Cc1ccc(C(=O)N(CC(=O)NC2CCCCC2)c2ccccc2C)s1 | i | 0.77 | -0.3 | -4 | 105 | 7 | 100
CC(C)CCNC(=O)c1cc(-c2ccncc2)nc2ccc(S(=O)(=O)N3CCOCC3)cc12 | i | 1.1 | 1.3 | -4 | 107 | -44 | 88
CCCS(=O)(=O)N1CCN(C(=O)COc2ccc(OC)cc2)CC1 | i | 0.89 | -0.2 | -11 | 104 | -10 | 73

3 entries from above, ordered by their value in PKD1 kinase inh, descending:
structure,PKD1 kinase inh
CCCCNC(=S)NCc1ccc2[nH]c3c(c2c1)CCCC3,3
O=C(COC(=O)c1cc(C(F)(F)F)cc(C(F)(F)F)c1)NCc1ccc(Cl)cc1,-2
Cn1nc(-c2ccc(N3CCOCC3)c(NC(=O)COc3ccccc3)c2)c2ccccc2c1=O,-5

Other records follow.
SMILES | HSV augment | HSV augment primary fold | GALR2 ag | PKD1 kinase inh | RGS16-Gao | INS promoter inh | INS promoter inh cell count
CN(CC(=O)N1CCN(C2CCCCC2)CC1)S(=O)(=O)c1cccc2nsnc12 | i | 0.79 | -1.6 | -4 | 95 | -10 | 78
CCOC(=O)C1=C2c3cc(OC)c(OC)cc3CC(C)(C)N2C(=O)C1=O | x | x | 1.3 | -13 | 101 | -46 | 111
CCc1cc(C(=O)O)c(NC(=O)/C=C/c2ccc(OC)cc2)s1 | i | 0.96 | x | x | 107 | x | x
CC(=O)N1CCCc2cc(S(=O)(=O)NC(C(=O)NC3CCCCC3)C(C)C)ccc21 (stereo unspecified) | i | 1 | -1.4 | -11 | 97 | -128 | 89
CC(=O)NC1C(=O)N=C(SCC(=O)Nc2ccc(C(F)(F)F)cc2Cl)NC1=O (stereo unspecified) | i | 0.98 | x | 2 | 106 | 58 | 109
O=C1c2ccccc2C(=O)N1c1ccc(Cl)cn1 | i | 0.9 | -1.1 | 1 | 106 | -113 | 130
CC(C)c1ccc(OC(=O)NCCO)cc1 | i | 1 | -3.2 | 5 | 100 | -50 | 56
C/C(=N\O)c1ccc2c(c1)OCCO2 | i | 1 | x | -6 | 103 | -72 | 137
COCCNC(=O)COC(=O)c1ccc(OCC(=O)Nc2ccccc2OC)c(OC)c1 | i | 0.96 | x | -4 | 98 | x | x

One compound at a time, as listed above. Values in the order: HSV augment	HSV augment primary fold	GALR2 ag	PKD1 kinase inh	RGS16-Gao	INS promoter inh	INS promoter inh cell count
C/C(=N\O)c1ccc2c(c1)OCCO2 is entered as i	1	x	-6	103	-72	137
CCOC(=O)C1=C2c3cc(OC)c(OC)cc3CC(C)(C)N2C(=O)C1=O is entered as x	x	1.3	-13	101	-46	111
COCCNC(=O)COC(=O)c1ccc(OCC(=O)Nc2ccccc2OC)c(OC)c1 is entered as i	0.96	x	-4	98	x	x
